Bm FixLJ act: B. multivorans fixK reporter activation; B. multivorans fixK-promoter GFP reporter, 18 h; stronger effect = higher value; z-score (test concentration not listed); actives 0.3% (n = 29,000); AID 1918990;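 active means replicate mean overnight rise in green fluorescent reporter signal, 3 or more SD over negative controls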;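 further: score is relative to vehicle wells of the plate; 300 nL library stock went into each well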
Numbers without * were called inactive; & = joins results of further samples.

| structure | Bm FixLJ act |
| --- | --- |
| Cc1ccc(CN2C(=O)c3oc4ccc(C)cc4c(=O)c3C2c2ccc(O)cc2)cc1 (stereo not given) | -2.5 |
| Cc1ccccc1NC(=O)C1CCN(S(=O)(=O)c2c(C)noc2/C=C/c2ccco2)CC1 | -1.9 |
| CCc1nnc2c(NCc3ccccc3)nc3ccccc3n12 | -0.8 |
| Cc1ccc(C(=O)Nc2cccc3cccnc23)cc1Cl | -0.79 |
| Cc1sc2nc(CCNC(=O)CC3NC(=O)c4ccccc43)[nH]c(=O)c2c1C (stereo not given) | -1.1 |
| COc1ccccc1OCC(O)CN1CCN(CC(=O)Nc2c(C)cccc2C)CC1 (stereo not given) | -1.2&-1.3 |
| COc1ccc(CC(=O)Nc2sc3c(c2C(=O)Nc2c(C)cccc2C)CCCCC3)cc1 | -1.2 |
| CC(C)c1cc(C(=O)NCc2ccccc2)no1 | -0.43 |
| CSc1ncc(C(=O)O)c(-c2ccc(-n3cccn3)cc2)n1 | -1.6 |
| COc1ccc(NC(=O)CNC(=O)Cn2c(C)cc3ccccc3c2=O)cc1OC | -1.3 |
| CCN1CC2(CCCN(C(=O)Cc3cnc(C)[nH]c3=O)C2)CCC1=O (stereo not given) | 0.01 |
| CN(C)C(=O)NCC(=O)N1CCC(CNC(=O)CCN2CCCCC2=O)CC1 | 0.94 |
| Cc1c2cnn(CC(=O)NCCc3ccccc3)c(=O)c2c(C)n1Cc1ccccc1Cl | -4.5 |
| Cc1ccc(OCC(=O)Nc2cccc3ccc(C)nc23)c(C)c1 | 0.19 |
| COc1cc(C2CC(=O)Nc3c2c(=O)nc2c(C)cccn32)cc(OC)c1OC (stereo not given) | -3 |
| CCOc1ccc(C(=O)Nc2c(C(=O)Nc3ccccc3F)oc3ccccc23)cc1OCC | -0.78 |
| CCOc1ccccc1NC(=O)c1c(NC(=O)c2cccc(C)c2)sc2c1CCC2 | -1.5 |
| CCc1ccccc1Nc1nc2cc(Cl)c(Cl)cc2nc1-n1nc(C)cc1C | -0.94 |
| O=C(NCc1cc2n(n1)CCN(S(=O)(=O)c1cn[nH]c1)C2)C1CCC1 | -0.05 |
| COc1ccc(NC(=O)c2ccc3c(SCC(=O)O)c4c(nc3c2)CCCC4)cc1OC | 0.21 |
| Cc1ccc(NC(=O)/C(C#N)=C/c2ccc(-c3ccc(Cl)c(C(=O)O)c3)o2)cc1C | -0.51 |
| COc1ccc(NC(=O)c2oc3ccccc3c2NC(=O)c2cc(=O)c3cc(Cl)ccc3o2)cc1 | -2.4 |
| CCc1c(C)c2cc3c(c(C)c2oc1=O)OCN(CCc1ccccc1F)C3 | -1 |
| CCCSc1oc(-c2ccco2)nc1S(=O)(=O)c1ccc(Br)cc1 | 1.8 |
| Cc1ccc(S(=O)(=O)CCC(=O)NCC2CCCOC2)cc1 (stereo not given) | -1.2 |
| CCC(=O)N1CCc2cc(Br)cc(S(=O)(=O)N3CCCC(C(=O)NCc4ccc(F)cc4)C3)c21 (stereo not given) | -2.1 |
| COc1ccc(-n2nc3ccc(NC(=O)c4ccc(-c5cc(Cl)ccc5Cl)o4)cc3n2)cc1 | -2.9 |
| CC(NC(=O)CCS(=O)(=O)c1ccccc1)C1=CCCCC1 (stereo not given) | -1.8 |
| Cc1cc(C(=O)N2CCCN(CCCS(=O)(=O)N(C)C)CC2)n(C)n1 | 0.19 |
| Cc1cc2occ(CC(=O)NCCCc3csc(N)n3)c2cc1Cl | -0.46 |
| CCN1CCC(N2CC3c4ccccc4OC[C@]3(C(=O)O)C2)CC1 (stereo not given in full) | 1.3 |
| CO/N=C(\C(=O)N[C@@H]1C(=O)N2C(C(=O)[O-])=C(C[N+]3(C)CCCC3)CS[C@H]12)c1csc(N)n1 | -5.9 |
| COc1cc2c(cc1OC)C(COc1ccc3c(C)cc(=O)oc3c1)N(C(=O)Cc1ccccc1)CC2 (stereo not given) | 1.3 |
| c1ccc(CNc2nc3ccccc3c3nc(-c4ccccc4)nn23)cc1 | -1.4 |
| Nc1ccn([C@@H]2O[C@H](CO)[C@@H](O)C2O)c(=O)n1 (stereo not given in full) | -0.67 |
| COc1ccc(C(=O)c2cn(Cc3ccc(F)cc3)c3ccc(C)cc3c2=O)cc1 | -0.35 |
| O=C(Nc1ccc2oc(-c3cccc4c(Br)cccc34)nc2c1)c1cccc(Cl)c1 | 0.01 |
| CC(C)(C)c1cc(CN2CCCN(C(=O)Cc3cccc(F)c3F)CC2)[nH]n1 | -2.7 |
| CCN(CC)C(=O)c1ccc2c(c1)N(Cc1c(F)cccc1Cl)C(=O)c1ccccc1S2 | 1.2 |
| O=C(Nc1noc2ccccc12)c1cccc(Cl)c1Cl | 0.43 |

2 entries picked at random from those above:
| structure | Bm FixLJ act |
| --- | --- |
| CO/N=C(\C(=O)N[C@@H]1C(=O)N2C(C(=O)[O-])=C(C[N+]3(C)CCCC3)CS[C@H]12)c1csc(N)n1 | -5.9 |
| CCN1CCC(N2CC3c4ccccc4OC[C@]3(C(=O)O)C2)CC1 (stereo not given in full) | 1.3 |

Later entries.
| structure | Bm FixLJ act |
| --- | --- |
| COc1cc(CCC(=O)NC2COCC2Cc2ccnc3ccccc23)ccc1C (stereo not given) | 0.82 |
| COc1ccc2c(c1)c(CC(=O)OCC(=O)O)c(C)n2C(=O)c1ccc(Cl)cc1 | -1.7 |
| CC(=O)Nc1ccc(NS(=O)(=O)c2ccc(Cl)s2)cc1 | -2.7 |
| Cc1cc(C)n(-c2cccc(CN(C)C(=O)NCCCc3nn[nH]n3)c2)n1 | 0.99 |
| COCCNC(=O)CSc1nc(-c2ccc(F)cc2)[nH]c1-c1ccc(Cl)cc1 | -1.1 |
| Cc1nc(SCc2ccc(Cl)cc2)c(C#N)c(C)c1Cl | -2.3 |
| COc1ccc(C(=O)Nc2ccc3nc4c(c(Nc5ccc(OC)c(OC)c5)c3c2)CCCC4)c(OC)c1 | -0.02 |
| O=S(=O)(c1ccc(-n2cnnn2)cc1)N1CCN(c2cccc(Cl)c2)CC1 | -1.8 |
| Cc1cc(C(=O)N2CCCC2)ccc1NC(=O)c1cnc(C2CC2)nc1 | 0.43 |
| Cc1cccc(NC(=O)c2sc3nc4c(cc3c2N)CCCCCC4)c1C | 1.5 |
| COCC(=O)Nc1ccc(NC(=O)Cc2cc(OC)c(OC)c(OC)c2)cc1C | -0.62 |
| CCOc1ccc(CN(CCc2ccc3c(c2)OCO3)Cc2ccc(C)cc2)cc1 | 1 |
| COc1cc(C(=O)NC2(Cc3ccc(C)cc3)CC2)ccc1O | 0.5 |
| COc1ccc(S(=O)(=O)Nc2cc3c(cc2N2CCOCC2)n(C)c(=O)n3C)cc1 | 1.9 |
| Cc1ccccc1NC(=O)CSc1nc2c(oc3ccccc32)c(=O)n1-c1ccccc1F | -0.62 |
| Clc1cccc(N2CCN(c3nc4ccccc4n4cnnc34)CC2)c1 | -1 |
| Cn1nc(C(N)=O)c2c1CCN(C(=O)CCCOc1ccccc1)C2 | -0.54 |
| O=C(Cc1ccccc1)Nc1sc2c(c1C(=O)Nc1ccccc1Cl)CCCC2 | -1.4 |
| NC(=O)c1c(NC(=O)c2noc3c2CCCC3)sc2c1CCCC2 | -0.94 |
| CCOc1ccc(-c2noc(CSc3nnc(Cc4ccccc4)n3-c3cccc(C)c3)n2)cc1 | -2 |
| Cc1ncc(C(=O)N2CCCC3(CCC(=O)N(CCC(C)C)C3)C2)cn1 (stereo not given) | 0.21 |
| CCn1cc(NC(=O)N2CCN(S(=O)(=O)c3ccccc3)CC2)cn1 | -0.74 |
| COc1cccc(CC(=O)N2CC(C(=O)O)C(c3ccccc3)C2)c1OC (stereo not given) | -1.7 |
| N#Cc1ccc(C(=O)NCC2CN(CC3CCN(CC4CC4)CC3)C(=O)CO2)cc1 (stereo not given) | -0.51 |
| COc1cccc(OCc2nc3ccccc3n2CCOc2ccccc2)c1 | -1.2 |
| Cc1cnn(CC(=O)NCC2CCN(c3ccc(C(F)(F)F)cn3)CC2)c1 | -2.5 |
| Cc1ccc(NC(=O)[C@@H](c2ccccc2)N2Cc3ccccc3C2=O)cc1 | -0.21 |
| Cc1cccc2nc(C(=O)N3CCC4(CC3)c3nc[nH]c3CCN4C)c(F)n12 | -0.34 |
| Cc1ccc(NC(=O)C2CCCN(c3nnc(-n4c(C)ccc4C)s3)C2)c(C)c1 (stereo not given) | -0.29 |
| CCOCC(=O)N1CCC(C(=O)Nc2cccc(-c3nncn3C)c2C)CC1 | -0.14 |
| Cc1cc(C)c2c(CC(=O)Nc3ccc(S(=O)(=O)Nc4ncccn4)cc3)coc2c1 | -1.2 |
| CCOc1ccc2c(c1)sc1nc(=O)n(-c3ccc(Cl)c(Cl)c3)c(=O)n12 | -1.1 |
| CNC(=O)CN1C(=O)COc2ccc(S(=O)(=O)N3CCC(C)CC3)cc21 | 0.11 |
| Cc1cnc(CNC(=O)c2cc3c(s2)CCOC32CCNCC2)cn1 | -0.01 |
| CCc1nn(CC(=O)NC2CC2)c(=O)c2cc3ccccc3n12 | 0.42 |
| COc1ccccc1CN(CCO)C(=O)Nc1ccc2c(c1)COC2 | -0.22 |
| CCc1ccc(NS(=O)(=O)c2ccc3oc(=O)c4ncn(CC)c4c3c2)cc1 | -1.4 |
| CCCCOC(=O)Cn1nnc2sc(-c3ccccc3)cc2c1=O | 0.23 |
| Cc1ccc2oc(=O)n(CCC(=O)NCc3noc(-c4cccs4)n3)c2c1 | -0.38 |
| CCOC(=O)C1CCCN(S(=O)(=O)c2ccc3c(c2)CCN3C(=O)CC)C1 (stereo not given) | -0.61 |
| Cc1ccc2nc3c(cc(C(=O)NC4CCCCC4)c(=N)n3C(C)C)c(=O)n2c1 | -0.2 |
| Cc1ccc(C(=O)c2oc3ccccc3c2NC(=O)COc2ccccc2Cl)cc1 | -0.95 |
| Cc1ccc(Cl)cc1N1CCN(C(=O)CCS(=O)(=O)c2cc(Br)cc3c2N(C(=O)C2CC2)CC3)CC1 | 0.21 |
| CCc1cc2c(cc(C(=O)OC)n2Cc2nc(-c3ccc(C)cc3)oc2C)s1 | -0.09 |
| COc1cccc(C2CN(C(=O)CC3CCCC3)CC2C(=O)O)c1 (stereo not given) | -0.02 |
| O=C(CN1CCOc2ccccc2C1)N1CCN2C(=O)OCC2C1 (stereo not given) | 0.6 |
| CCC12CN3CC(C)(CN(C1)C3c1c[nH]c3ccc(OC)cc13)C2=O (stereo not given) | -1.4 |
| CCc1nn(CC(=O)N2CCN(c3cccc(Cl)c3)CC2)c(=O)c2cc3sccc3n12 | 1.6 |
| CCn1c(CC2CCNCC2)nn(CCn2cccc2)c1=O | 0.38 |
| COc1ccc(S(N)(=O)=O)cc1C(=O)N(C)Cc1c(C)noc1C | 0.88 |

Further results:
| structure | Bm FixLJ act |
| --- | --- |
| COc1ccc(-c2cn(-c3ccc(C)cc3)c(S(=O)(=O)CC(=O)Nc3ccc(F)cc3)n2)cc1 | 0.36 |
| COc1ccc(-n2c(=O)c3sc4ccccc4c3n(CC(=O)NC3CCCCC3)c2=O)cc1 | -0.13 |
| COc1ccc(Cc2nc(C(C)N)n(CC(=O)NCc3ncc[nH]3)n2)cc1OC (stereo not given) | -0.17 |
| COc1cccc([C@H]2Nc3ccc(S(=O)(=O)Nc4cc(C)ccc4C)cc3[C@H]3C=CC[C@H]32)c1 | -1.8 |
| Cc1ccc(-c2nc3n(n2)C(=O)CC(c2ccc(C)cc2)S3)cc1 (stereo not given) | 0.94 |
| C=Cc1ccc(Cn2c(C)c(CNCCc3cc(OC)ccc3OC)c(C(=O)O)c2C)cc1 | -0.87 |
| Cc1nc(C)c(C(=O)N2CCCN(C(=O)Cn3cc4ccccc4n3)CC2)s1 | -1 |
| CCOC(=O)C(CC)n1nc(C)c2c(C)n(-c3ccc(C)cc3)nc2c1=O (stereo not given) | -1.1 |
| CCCCn1c(=N)c(C(=O)NC2CCCCC2)cc2c(=O)n3cccc(C)c3nc21 | -4.4 |
| CCSc1nnc2c(n1)OC(c1ccc(OC)cc1OC)N(C(C)=O)c1ccccc1-2 (stereo not given) | -1.1 |
| CCCS(=O)(=O)Nc1cc(-c2cn3cccc(C)c3n2)ccc1C | -1.9 |
| COCC1C(NS(=O)(=O)c2ccccc2C)C2CCOC21 (stereo not given) | 0.2 |
| COc1c(N2CCNC(C)C2)c(F)cc2c(=O)c(C(=O)O)cn(C3CC3)c12 (stereo not given) | -4.4&-4.3 |
| COc1ccc(-c2noc(COc3cc(C)c(Br)c(C)c3)n2)cc1OC | -2.3 |
| CN1CCC2(CC1)OCCc1cc(C(=O)N3CCC(CO)C3)sc12 (stereo not given) | -0.99 |
| CCc1cccc(NC(=O)C2CCCN2S(=O)(=O)c2ccc3c(c2)n(C)c(=O)c(=O)n3C)c1 (stereo not given) | -0.39 |
| Cc1[nH][nH]c(=O)c1CC(=O)N1CC2CCC(C1)N(CC1CC1)C2 (stereo not given) | -0.62 |
| O=C(Nc1ccc2c(c1)OCO2)c1cc(-c2ccc(Br)cc2)on1 | 0.26 |
| COc1ccc(-c2nc(CS(=O)CC(=O)NCCc3ccccc3)c(C)o2)cc1OC (stereo not given) | -1.5 |
| CC(C(=O)Nc1cc(C(F)(F)F)ccc1Cl)n1nnc2sc3c(c2c1=O)CCCC3 (stereo not given) | -2.1 |

No new results follow: three of the compounds above.
| structure | Bm FixLJ act |
| --- | --- |
| CCCS(=O)(=O)Nc1cc(-c2cn3cccc(C)c3n2)ccc1C | -1.9 |
| COCC1C(NS(=O)(=O)c2ccccc2C)C2CCOC21 (stereo not given) | 0.2 |
| COc1c(N2CCNC(C)C2)c(F)cc2c(=O)c(C(=O)O)cn(C3CC3)c12 (stereo not given) | -4.4&-4.3 |

(continued)
| structure | Bm FixLJ act |
| --- | --- |
| CCOc1ccc(C2C(C(=O)Nc3ccccc3C)=C(C)Nc3nnnn32)cc1 (stereo not given) | -2.3 |
| COCCNS(=O)(=O)c1cc(C(=O)O)cc(-c2ccc(CO)cc2)c1 | -1.4 |
| CC(C)c1ccc(C2c3c(-c4ccccc4O)n[nH]c3C(=O)N2Cc2ccncc2)cc1 (stereo not given) | 0.31 |
| CCOC(=O)c1ccc(NC(=O)CC2Sc3ccc(C(F)(F)F)cc3NC2=O)cc1 (stereo not given) | -0.5 |
| CC12CC[C@H](CC1=O)C2(C)C | -0.18 |
| COC(=O)c1cc2occc2n1CC(=O)Nc1ccc(C)cc1Cl | -0.23 |

This is a subset (hit frequency here may not be typical).
